# BJeLR lethal = MLPCN primary cell-based screen for lethality selective to Ras in HRASV12 cells | BJeLR (HRASV12) viability, CellTiter-Glo ATP luminescence, 48 h; reference of the scale not given here | inhibition, % (no concentration beside the values) | 300,000 tested, 0.17% active | AID 1554, 2009;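 active means replicate mean above 50%; inconclusive means above 50% but judged a plate artefact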;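 further: 50 nL library stock added to about 25 µL; numbers are from one replicate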
# RN4220 kill = growth inhibition of S. aureus RN4220, primary screen, OD600; 330,000 tested, 0.33% active; 16 h; inhibition, % (test concentration not listed); AID 1259311, 2017;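 active means z-score of -3 or lower and OD600 up to 0.18 on both plates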;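 further: plate controls were untreated cells for no effect and reference antibiotic for full effect; stock transfer was 100 nL into about 80 µL; one replicate is shown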
# Mtb hypoxia rep = PubChem AID 1159583 | 300,000 tested, 0.1% active | fluorescence inhibition, % (concentration not given with the values) | M. tuberculosis hypoxia-regulated fluorescent reporter, fluorescence;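 active means 35 to 45% if threefold the growth effect, above 45% if 1.5-fold the growth effect; inactive means the rest, general growth blockers included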;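 further: wells of about 50 µL received 100 nL stock; 0% = vehicle wells and 100% = reference inhibitor wells; whole bacteria with a GFP reporter of the hypoxia response; strong numbers were not always called active; many hits fall short of the cut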
# ugtP null kill = growth inhibition of ugtP-null S. aureus, primary screen, RN4220 ugtP deletion, OD600. 16 h; some inactives read as strong as hits. 330,000 tested, 0.54% active. AID 1259309, 2017. growth inhibition, % (concentration not given with the values);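 active means z-score under -3 and OD600 up to 0.15 on both plates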;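 further: plate controls were untreated wells for no effect and antibiotic for full effect; wells of about 80 µL received 100 nL stock; the first replicate is given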
# Bead autofluor = counter-screen for toxin protease inhibitors: compound fluorescence; AID 624483; fluorescence intensity (no concentration beside the values); compound autofluorescence counterscreen, microsphere flow cytometry; stronger effect = higher value; 360,000 tested, 3.1% active;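 active means at least 3 SD above the mean of all compounds, about 16000 in these data; inconclusive means too few beads counted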;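 further: 100 nL of 1 mM stock went into each well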
# PrP 5UTR inh = inhibition of PrP 5' UTR reporter expression | inhibition, % (concentration not given with the values) | 340,000 tested, 0.35% active | AID 488862, 2010 | cell-based PrP 5' UTR mRNA reporter, plate reader;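 active means every replicate at 50% or more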;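 further: 0 = median of the neutral control wells; tested in H4 reporter cells; numbers are from one replicate; inactives centre near -14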
# Mtb hypoxia rep growth = recorded beside Mtb hypoxia rep, whose call it bears; growth inhibition, %; measured here: M. tuberculosis growth (absorbance);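 0% = vehicle and 100% = reference antibiotic; read after six days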
# The depositor's hits bear a star; ? = inconclusive; . = not tested or not shown; & = joins results of further samples.
no.	Structure	BJeLR lethal	RN4220 kill	Mtb hypoxia rep	Mtb hypoxia rep growth
1	Cc1ccnc2ccc(-c3nc4ccccc4o3)cc12	.	5.2	.	.
2	Cc1occc1C(=O)N/N=C/c1ccccn1	0	.	.	.
3	O=C1OCc2ccc(NC(=O)c3c(F)cccc3Cl)cc21	4	2.9	5	6
4	CCCN(CCC)C(=O)c1ccccc1C(=O)N(CCC)CCC	-4	3.4	14	20
5	Cc1cccc(C)c1NC(=O)CSc1nc(C2CC2)nc2ccccc12	-17	11	21	7
6	COC(=O)c1cc(NC(=O)c2ccccc2F)cc(C(=O)OC)c1	0	3.3	7	5
7	CCOC(=O)c1ccc(NC(=O)Nc2ccc3c4c(cccc24)C(=O)N3CC)cc1	1	3.8	-2	-1
8	COc1cc(C=NO)cc(Br)c1OCc1ccc(Cl)cc1	.	-6.5	13	10
9	COC(=O)C1=C(C)N(C)C(C)=C(C(=O)OC)C1c1ccc(F)c(Br)c1	1	-1.6	.	.
10	COc1cc(C(=O)Nc2ccc(-n3cnnn3)c(C)c2)cc(OC)c1OC	-10	1.8	6	0
11	CCOC(=O)N1CCN(C(=O)CN(c2cccc(OC)c2)S(C)(=O)=O)CC1	2	9.9	7	16
12	COc1cc(C=NNC(C)=O)ccc1OC/C=C/c1ccccc1	.	-0.6	3	8
13	S=C(NCc1cccnc1)Nc1cc(Cl)cc(Cl)c1	-3	-2.9	-3	-8
14	O=C(CCSCCc1ccccn1)Nc1ccccn1	7	4.7	7	3
15	Cc1c(C(=O)N(Cc2nnc(-c3ccccc3Cl)o2)C2CC2)oc2ccccc12	.	2.5	2	7

no.	ugtP null kill	Bead autofluor	PrP 5UTR inh
1	0	2877	-92
2	.	2499	-23
3	-1	5948	-34
4	3	3866	-7
5	5	4039	-19
6	-2	4426	-17
7	-3	21257*	-4
8	40	.	.
9	-7	2628	10
10	13	7288	-16
11	-10	19270*	-24
12	9	.	.
13	-14	4339	-16
14	4	3279	-25
15	-1	?	-31

# Quoted from the listing.
# Under PrP 5UTR inh, compound 13 shows -16
# Under ugtP null kill, compound 15 shows -1

# Going on with the list.
no.	Structure	BJeLR lethal	RN4220 kill	Mtb hypoxia rep	Mtb hypoxia rep growth
16	Cc1cccc(OCC(=O)NC(Cc2ccccc2)C(=O)O)c1 (configuration not stated)	5	-1.7	-4	-6
17	CC(=O)N1CCC(=O)N(C(C)C)c2ccccc21	-1	-12	19	4
18	CCC(C(=O)NC1CCCC1)N(C(=O)c1snc(C(N)=O)c1N)c1ccc(OC)c(OC)c1 (configuration not stated)	10	1.9	14	-6
19	COc1c(Cl)cnn(-c2ccc(C)cc2)c1=O	-18	8.7	8	0
20	Cc1ccc(S(=O)(=O)Cn2nnnc2C(c2ccccn2)N2CCN(c3ccccc3)CC2)cc1 (configuration not stated)	3	3.9	13	2
21	CCOC(=O)C(CC)Sc1ncnc2nc[nH]c12 (configuration not stated)	1	3.7	3	6
22	COc1ccc(NC(=S)NCc2ccco2)cc1	-3	2.1	.	.
23	O=C(NN=C1CCCc2oc(C(=O)O)cc21)c1ccccc1	.	0.9	5	8
24	COc1ccc(OC)c(NP(=O)(Oc2ccccc2)Oc2ccccc2)c1	-4	-5.0	-9	7
25	O=C1CCC/C(=N\NC(=O)c2ccc(COc3cccc4cccnc34)cc2)C1	-11	.	.	.
26	CC(Sc1nncs1)C(=O)NCC(=O)Nc1ccc(F)c(F)c1F (configuration not stated)	3	5.5	5	-6
27	COc1ccc(C(=O)CSc2nnc(CN3CCCCC3)n2-c2ccc(F)cc2)cc1	7	-0.2	2	-2
28	CNS(=O)(=O)c1cccc(C(=O)NCC2(N3CCOCC3)CCCCC2)c1	0	6.5	4	-2
29	COC(=O)c1ccc(OCC(=O)c2cccc(OC)c2)cc1	6	6.3	10	12
30	COC(=O)c1c(NC(=O)COC(=O)[C@@H](NS(=O)(=O)c2ccc(C)cc2)C(C)C)sc2c1CCC2	0	18	15	2

no.	ugtP null kill	Bead autofluor	PrP 5UTR inh
16	5	11328	-30
17	-4	2556	-27
18	12	3843	-26
19	2	6254	-31
20	12	6610	-9
21	0	3814	-16
22	4	2782	-3
23	-1	.	.
24	-7	3753	-4
25	.	9927	-12
26	16	2268	-25
27	-25	2019	-23
28	11	4541	-13
29	4	2098	-46
30	-13	3344	-31

# Of the compounds above, 4 have a furan ring, fused or not:
no.	Structure	BJeLR lethal	RN4220 kill	Mtb hypoxia rep	Mtb hypoxia rep growth
2	Cc1occc1C(=O)N/N=C/c1ccccn1	0	.	.	.
15	Cc1c(C(=O)N(Cc2nnc(-c3ccccc3Cl)o2)C2CC2)oc2ccccc12	.	2.5	2	7
22	COc1ccc(NC(=S)NCc2ccco2)cc1	-3	2.1	.	.
23	O=C(NN=C1CCCc2oc(C(=O)O)cc21)c1ccccc1	.	0.9	5	8

no.	ugtP null kill	Bead autofluor	PrP 5UTR inh
2	.	2499	-23
15	-1	?	-31
22	4	2782	-3
23	-1	.	.

# (next part)
no.	Structure	BJeLR lethal	RN4220 kill	Mtb hypoxia rep	Mtb hypoxia rep growth
31	N#CC(=Cc1ccc(O)c(O)c1)C(=O)NCCc1ccccc1	.	6.7	4	-6
32	NC(=O)c1ccsc1NC(=O)c1ccc(S(=O)(=O)N2CCCc3ccccc32)cc1	6	.	.	.
33	Cc1nc2sccc2c(=O)n1N	3	8.2	14	3
34	Cc1[nH]c(=O)c(C#N)c(C)c1Cc1ccc(Cl)cc1Cl	-3	6.5	2	3
35	CN(CC(=O)NC1CCCCC1)S(=O)(=O)c1ccc(Cl)cc1	-6	2.0	2	9
36	CCO[C@H]1OC(C(=O)N2CCN(Cc3ccccc3)CC2)=C[C@@H](C)[C@@H]1CCCO	-2	.	.	.
37	COc1ccc(N2CCN(C(=O)CCC(=O)c3cc(C)sc3C)CC2)cc1	-4	-0.5	7	14
38	CCCOc1ccc(C(=O)N2CCN(c3ccc(NC(=O)CC)cc3Cl)CC2)cc1	1	8.0	8	22
39	O=C(O)CCSCc1ccccc1F	.	3.2	.	.
40	CCOc1ccc(NC(=O)CSc2cn[nH]n2)cc1	-6	-0.7	-2	4
41	COc1ccccc1NC(=O)Cn1nc(-c2ccncc2)nc1SCC(=O)NC1CCCC1	-7	7.1	-8	4
42	O=C(c1ccco1)N1CCN(CC2CC3C=CC2C3)CC1 (configuration not stated)	.	2.4	4	13
43	CCOC(=O)c1ccc(N2C(=O)CC(C)(CC)CC2=O)cc1	-4	-0.3	-7	-2
44	Cc1c(Br)c(=O)oc2cc(OCC(=O)N3C[C@H]4C[C@@H](C3)c3cccc(=O)n3C4)ccc12	-2	-1.3	.	.
45	CCCCNC(=O)C1CC(c2ccc(C(F)(F)F)cc2)=NO1 (configuration not stated)	-7	1.3	.	.

no.	ugtP null kill	Bead autofluor	PrP 5UTR inh
31	-15	.	.
32	.	4388	-31
33	7	4382	-19
34	-2	4194	-4
35	1	6633	-10
36	.	3508	-17
37	2	4997	-34
38	-2	20982*	-37
39	6	5019	-2
40	-4	5628	-6
41	7	4089	-48
42	-10	20016*	-52
43	-3	4357	-17
44	1	4173	-5
45	-1	3773	-23

# Later entries:
no.	Structure	BJeLR lethal	RN4220 kill	Mtb hypoxia rep	Mtb hypoxia rep growth
46	O=C(O)CCSc1nnc(COc2ccc([N+](=O)[O-])cc2)n1-c1ccccc1	-5	0.1	-18	5
47	COc1ccc(CNC(=O)C=Cc2ccc3[nH]cc(CCN(C)C)c3c2)cc1	.	7.5	8	1
48	Cc1ccc(C)c(S(=O)(=O)N2CCN(C(=O)[C@@H](NC(=O)c3ccc(F)cc3)C(C)C)CC2)c1	.	4.4	5	2
49	CC[C@@H](CO)C1CC2NC3CC4(c5ccccc5N(C)[C@@H]24)C(O)C31 (some centres not stated)	10	3.5	.	.
50	CCCCNC(=O)COC(=O)C1CCN(S(=O)(=O)c2ccc3c(c2)OCCO3)CC1	.	-2.6	6	0
51	CN(C)c1ccc(C(=O)NNC(=O)C23CC4CC(CC(C4)C2)C3)cc1	.	4.2	8	1
52	CC1(C)C2CCC(C2)C1CC=NNC(N)=S (configuration not stated)	.	3.0	16	20
53	Cc1ccnc(N(C(=O)c2cccs2)C(=O)c2cccs2)c1	-3	3.0	11	1
54	Fc1ccc(NC(=S)NN2CCOCC2)cc1Cl	17	1.8	-3	-5
55	NC(=O)Cn1cc(/C=N\NS(=O)(=O)c2ccc(F)cc2)c2ccccc21	0	.	.	.
56	Cc1ccccc1C(=O)NCCNC(=O)c1cnccn1	-4	2.0	-7	-7
57	CCN1CCN(CC(O)COCc2cc(OC)c(OC)c(OC)c2)CC1 (configuration not stated)	-6	-0.5	5	-10
58	CCN1CCN(C(=O)C2CCCN(S(=O)(=O)c3ccc(OC)c(OC)c3)C2)CC1 (configuration not stated)	8	1.1	7	3
59	O=C(Nc1cnc2ccccn2c1=O)c1ccc(F)cc1	2	3.6	-3	2
60	COc1ccc(C2NC(=O)NC(C)=C2C(C)=O)cc1 (configuration not stated)	-6	7.0	5	6

no.	ugtP null kill	Bead autofluor	PrP 5UTR inh
46	2	4338	-18
47	5	.	.
48	2	8518	-16
49	-2	5436	-40
50	1	.	-13
51	1	3547	-48
52	0	.	.
53	2	3400	-81
54	-2	2530	-17
55	.	5957	-18
56	5	3143	3
57	7	2595	-21
58	10	3769	-23
59	9	6720	-31
60	-2	4832	-23

# Continuation:
no.	Structure	BJeLR lethal	RN4220 kill	Mtb hypoxia rep	Mtb hypoxia rep growth
61	O=C(N1CCN(CCO)CC1)N1c2ccccc2CCc2ccccc21	0	4.0	6	7
62	CC(C)c1cc(C(=O)NCc2ccco2)no1	-4	3.4	.	.
63	CCC(=O)NCCc1nc2cc(NC(=O)c3ccc(OC)cc3)ccc2n1C	1	2.9	4	-4
64	CC(=O)c1ccc(N2CCN(S(=O)(=O)c3c(C)[nH]c(=O)[nH]c3=O)CC2)cc1	10	0.1	2	2
65	C#C[C@]1(O)CCC2C3CCC4=CC(=O)CCC4C3CC[C@@]21C (some centres not stated)	.	6.6&8.6	-3&4	5&2
66	O=C(c1ccc2c(=O)n3c(nc2c1)CCC3)N1CCCSC1=Nc1ccccc1	0	0.8	1	-3
67	CCOC(=O)C1CCCN(c2c(NCc3ccco3)c(=O)c2=O)C1 (configuration not stated)	-3	1.5	-1	-4
68	O=C(c1ccccc1)N1CCCCCC1	-9	3.6	.	.
69	Cc1ccc(N=Cc2c(C)[nH]n(-c3nc4ccccc4[nH]3)c2=O)cc1	103*	8.4	4	9
70	Cn1nccc1C(=O)N1CCCC(N2CCN(Cc3ccc4c(c3)OCO4)CC2)C1 (configuration not stated)	4	2.5	4	0
71	Cc1ccccc1-c1nc(CS(=O)(=O)CC(=O)N(C)C2CCCCC2)c(C)o1	6	5.1	-1	-2
72	N#C/C(=C\c1cccc(Cl)c1)c1n[nH]c(Cn2cncn2)n1	3	.	.	.
73	Cc1ccc(NC(=O)CNc2ccc(N3CCOCC3)cc2)cc1S(=O)(=O)N(C)C	-4	-0.6	1	3
74	Cc1cccc(NC(=S)N2CCN(Cc3ccccc3)CC2)c1C	-3	2.8	18	4
75	FC(F)(F)c1cnc(-c2cnc(-c3ccncc3)nc2)c(Cl)c1	-6	3.8	6	-7

no.	ugtP null kill	Bead autofluor	PrP 5UTR inh
61	7	5607	-29
62	12	4533	-24
63	8	8371	-36
64	5	2111	-6
65	-3&2	.	.
66	-5	6415	-15
67	8	4497	1
68	10	2354	-12
69	-6	2052	17
70	0	5670	2
71	-2	5064	-7
72	.	2803	-22
73	2	4262	-16
74	6	2466	-15
75	-13	2795	-40

# (continued)
no.	Structure	BJeLR lethal	RN4220 kill	Mtb hypoxia rep	Mtb hypoxia rep growth
76	Nc1nncn1C(=O)CCCOc1ccccc1	0	0.5	.	.
77	COc1ccc(/C=N/NC(=O)c2cc3c(ccc4ccccc43)o2)c(OC)c1	11	.	.	.
78	COCC(C)NC(=O)CSc1nc(-c2ccccc2)c(-c2ccccc2)o1 (configuration not stated)	-5	0.7	11	11
79	CCOC(=O)/C=C1\SCC(=O)N1CC(=O)NC(C)C	-5	3.6	7	8

no.	ugtP null kill	Bead autofluor	PrP 5UTR inh
76	3	4820	-6
77	.	5577	-13
78	4	5124	-71
79	0	4180	-15

# Screens deposited in PubChem by several laboratories.
